Bioassay records as filed in PubChem BioAssay.
Rango complex inh: qHTS Assay for Inhibitors of Rango (Ran-regulated importin-beta cargo) - Importin beta complex formation | Importin subunit beta-1 (Homo sapiens), Q14974 | Rango CFP/YFP FRET sensor + importin beta, 45 min | Potency, µM (top dose mostly 92.2 µM), for inactives: at the highest dose inhibition of complex formation | 340,000 tested, 0.031% active | AID 540263, 2011; active = rising FRET ratio curve, often small or poorly fitted; inconclusive = mostly compound fluorescence or quenching in the first reads; inactive = flat curves in all reads;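 further: potency means the concentration at half of the fitted maximal effect; 0% = DMSO wells and 100% = buffer wells lacking importin beta; nearly all actives have a fitted effect of over 15% in size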
Target sequence (Q14974 whole entry, looked up): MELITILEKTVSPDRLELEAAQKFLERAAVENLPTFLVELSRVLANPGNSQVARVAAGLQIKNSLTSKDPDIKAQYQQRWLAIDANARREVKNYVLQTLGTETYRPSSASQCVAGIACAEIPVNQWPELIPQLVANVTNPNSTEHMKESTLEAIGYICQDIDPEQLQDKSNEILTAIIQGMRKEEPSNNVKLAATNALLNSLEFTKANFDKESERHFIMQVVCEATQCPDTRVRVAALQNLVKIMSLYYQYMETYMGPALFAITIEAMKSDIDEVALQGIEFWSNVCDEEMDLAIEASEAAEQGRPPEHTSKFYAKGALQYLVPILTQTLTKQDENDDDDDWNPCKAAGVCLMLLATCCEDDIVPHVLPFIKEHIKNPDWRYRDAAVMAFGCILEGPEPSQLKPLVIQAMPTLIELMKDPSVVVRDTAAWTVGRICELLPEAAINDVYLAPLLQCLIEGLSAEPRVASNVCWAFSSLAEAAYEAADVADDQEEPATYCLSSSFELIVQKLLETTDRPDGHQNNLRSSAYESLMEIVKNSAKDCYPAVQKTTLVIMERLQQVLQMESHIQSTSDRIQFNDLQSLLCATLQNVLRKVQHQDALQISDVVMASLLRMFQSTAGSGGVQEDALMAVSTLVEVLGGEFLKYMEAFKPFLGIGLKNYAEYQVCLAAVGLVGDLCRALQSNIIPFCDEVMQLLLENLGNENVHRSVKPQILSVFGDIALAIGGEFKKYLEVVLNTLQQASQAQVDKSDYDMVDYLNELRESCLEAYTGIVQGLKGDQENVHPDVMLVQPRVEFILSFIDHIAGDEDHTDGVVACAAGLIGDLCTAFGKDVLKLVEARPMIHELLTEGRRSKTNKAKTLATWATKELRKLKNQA
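FRET biosensor (snurportin 1 IBB flanked by EYFP and cerulean), 50 nM, with compound 5 min, then 0.125 microM importin beta in PBS, 1 mM DTT, 0.02% Tween-20, 0.1% BSA. CFP/YFP ratio read after 45 min at room temperature; pre-read flags interference.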
miR-21 FLuc: qHTS Assay for Modulators of miRNAs and/orActivators of miR-21; HeLa miR-21 FLuc reporter, luciferase, 48 h; Potency, µM (doses to about 38.3 µM), for the others: at the top dose reporter change, positive = more light; 340,000 tested, under 10 active; active = well fitted rising curve with a large enough effect; inconclusive = small, poorly fitted or top-dose-only effect; inactive = no such curve, though single readings can be large or run the other way;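 further: % of control where 0% means no effect; miR-21 action dims this reporter so a rising signal means less miR-21 action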
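HeLa cells endogenously expressing miR-21, stably carrying CMV-driven firefly luciferase with a downstream miR-21 binding site, 2000 cells/well. Titrations up to approximately 40 uM, 48 hours; luciferase luminescence read.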
Rango release inh: qHTS Assay for Inhibitors of RanGTP induced Rango (Ran-regulated importin-beta cargo) - Importin beta complex dissociation. Snurportin-1 (Homo sapiens) + GTP-binding nuclear protein Ran (Homo sapiens) + Importin …. Biochemical FRET Rango-importin beta, RanGTP-induced dissociation. Potency, µM (doses to about 46.1 µM), for the others: at the highest dose activity change, negative = inhibition. 340,000 tested, 0.071% active. AID 540253, 2011; active means falling FRET ratio curve, often poorly fitted, with flat reads before Ran was added; inconclusive means other falling curves, or compound fluorescence or quenching; inactive means flat or rising ratio curve;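 further: potency means the concentration at half of the fitted maximal effect; % of control where 0% means no effect; nearly all actives have a fitted effect of over 45% in size; -100% = wells without RanGTP and RCC1; the record marks most hits as doubtful in a second field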
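Quantitative HTS using a FRET biosensor: 0.1 uM Rango, 0.25 uM importin beta, 0.6 uM Ran, 2 mM GTP, 0.2 uM RCC1 final, PBS with DTT, Tween-20 and BSA. Post-read taken 45 min after Ran addition.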
GLA inh pH 4.5: qHTS Assay for Inhibitors of Human alpha-Galactosidase at pH 4.5; purified enzyme, 4-MU-alpha-Gal fluorescence, pH 4.5; activity change, negative = inhibition, % at 105 µM; 230,000 tested, under 10 active; inconclusive = small, poorly fitted or top-dose-only inhibition, or a rising curve; inactive = flat fitted curve, though single readings scatter; no compound was filed as active;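 further: 0% = full activity with enzyme and -100% = basal without enzyme; dose as in the result columns while the protocol names 77 µM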
An asterisk follows results filed as active; & = joins results of further samples; [ ] = another dose, or the depositor's remark. Some of the compounds tested; the hit share may differ from the screen's.

CCOC(=O)c1ccc(N2C(=O)CC(N3CCC(O)(c4ccc(Cl)cc4)CC3)C2=O)cc1 (stereo not drawn) was read as Rango complex inh -0.1%, miR-21 FLuc 3%, Rango release inh 7% and GLA inh pH 4.5 -7.
Screening COc1ccc(Cl)cc1NC(=O)c1cccc(S(=O)(=O)Nc2c(C)n(C)n(-c3ccccc3)c2=O)c1 returned Rango complex inh 0.8% and Rango release inh 9%.
Screening CC(=O)NC(Cc1ccc(C)cc1)C(=O)NC1CCN(C(=O)c2cnccn2)CC1 (stereo not drawn) returned Rango complex inh -2.8%, miR-21 FLuc -7%, Rango release inh -6% and GLA inh pH 4.5 1.
For C=CCn1c(C(C)NC(=O)c2ccc(C)cc2)n[nH]c1=S (stereo not drawn) the results were Rango complex inh -0.1%, miR-21 FLuc -4%, Rango release inh -12% and GLA inh pH 4.5 1.
NS(=O)(=O)c1ccc(CCNC(=O)CNC(=O)COc2ccccc2)cc1 was read as Rango complex inh 0.2%, miR-21 FLuc -1% and Rango release inh 6%.
COc1cccc(NC(=O)CN2C(=O)NC(C)(CC(C)C)C2=O)c1 (stereo not drawn) was read as Rango complex inh 2.6%, miR-21 FLuc -3%, Rango release inh 22% and GLA inh pH 4.5 0.
CCOC(=O)c1cc(C#N)c(N)nc1C was read as Rango complex inh -0.5%, miR-21 FLuc -23%, Rango release inh 5% and GLA inh pH 4.5 -15.
For Cc1c(C#N)c2ccccc2n1CC(=O)O the results were Rango complex inh 0.6%, miR-21 FLuc 1%, Rango release inh -21% and GLA inh pH 4.5 -1.
Screening CCCn1nnc2ccccc2c1=O returned Rango complex inh 3.7%, miR-21 FLuc 0%, Rango release inh -6% and GLA inh pH 4.5 0.
NNC(=O)CCn1c2ccccc2c2ccccc21 was read as Rango complex inh 2.1%, miR-21 FLuc 21%, Rango release inh 0% and GLA inh pH 4.5 3.
`Cc1ccc(S(=O)(=O)N2[C@@H](c3ccc(Br)cc3)C(C(=O)O)=CC[C@H]2c2ccc3c(c2)OCO3)cc1` gave Rango complex inh 4.0% and Rango release inh 14%.
Screening Cc1csc(=O)n1CC(=O)Nc1ccc(C(C)C)cc1 returned Rango complex inh -0.1% and Rango release inh -2%.
`CC(=O)Nc1ccc(S(=O)(=O)NCc2ccncc2)cc1` gave Rango complex inh 0.1%, miR-21 FLuc 4%, Rango release inh -10% and GLA inh pH 4.5 1.
For Cc1ccc(NC(=O)N2CCC(c3ccccc3)C2)cc1C (stereo not drawn) the results were Rango complex inh -2.4%, miR-21 FLuc -38%&-26%, Rango release inh 0% and GLA inh pH 4.5 1[21.1 µM].
For O=C(Cn1nnc(-c2ccccc2)n1)Nc1cccc(S(=O)(=O)N2CCOCC2)c1 the results were Rango complex inh -1.5% and Rango release inh -9%.
Screening COc1cccc(C(=O)Nc2ccc3c(c2)C(=O)N(CCC(=O)O)C3=O)c1 returned Rango complex inh -1.7%, miR-21 FLuc 0%, Rango release inh 0% and GLA inh pH 4.5 -1.
For Cn1nnnc1SCc1csc(Nc2ccccc2)n1 the results were Rango complex inh 1.5%, miR-21 FLuc -38%, Rango release inh -9% and GLA inh pH 4.5 -8.
CCOC(=O)/C(C#N)=C/Nc1ccccc1NS(=O)(=O)c1ccc2c(c1)OCCO2 was read as Rango complex inh -0.7% and Rango release inh -21%.
CCOc1ccc(N(CC(=O)NCC2CCCO2)S(=O)(=O)c2ccc(Cl)cc2)cc1 (stereo not drawn) was read as Rango complex inh -0.9%, miR-21 FLuc -5%, Rango release inh 17% and GLA inh pH 4.5 2.
NNC(=O)[C@H](Cc1ccccc1)NC(=O)NCCc1ccccc1 was read as Rango complex inh -0.8%, miR-21 FLuc -5% and Rango release inh -6%.
`CCOC(=O)CCCCC(=O)c1[nH]c(=O)[nH]c1CSc1nc2ccccc2[nH]1` gave Rango complex inh inconclusive, miR-21 FLuc -6%, Rango release inh -11% and GLA inh pH 4.5 -4.
`O=C(/C=C/c1ccc([N+](=O)[O-])cc1)OCC(=O)N1CCOCC1` gave Rango complex inh 0.6% and Rango release inh 7%.
Screening Cc1cc(S(=O)(=O)N(Cc2ccc(C(C)(C)C)cc2)Cc2cccs2)ccc1-n1cnnn1 returned Rango complex inh 0.7%, miR-21 FLuc 6%, Rango release inh -10% and GLA inh pH 4.5 -5.
For CCCC(C(=O)Nc1ccc(S(=O)(=O)Nc2nccs2)cc1)c1ccccc1 (stereo not drawn) the results were Rango complex inh -0.6% and Rango release inh -10%.
CCc1nc(SCc2cccnc2)[nH]c(=O)c1C was read as Rango complex inh 0.9%, miR-21 FLuc -10%, Rango release inh 2% and GLA inh pH 4.5 6.
Screening Cc1oc2nc(SCCCC(=O)NCCO)nc(N)c2c1C returned Rango complex inh 3.2%, miR-21 FLuc 0%, Rango release inh 18% and GLA inh pH 4.5 0.
Screening Cc1ccc(-n2nc3c(=O)n(CC(=O)NC4CCCCCC4)nc(C)c3c2C)cc1 returned Rango complex inh -0.7%, miR-21 FLuc -1% and Rango release inh 19%.
`CC(=O)Nc1sc(C)c(C)c1C(=O)OCC(=O)NC(C)c1ccccc1` (stereo not drawn) gave Rango complex inh -2.3% and Rango release inh 13%.
For CCc1ccc2nc(N(CCN(C)C)C(=O)c3ccc4ncsc4c3)sc2c1 the results were Rango complex inh 3.3%, miR-21 FLuc -55% and Rango release inh -7%.
`CCc1cc(-c2[nH]ncc2-c2ccc3c(c2)OCO3)c(O)cc1O` gave Rango complex inh 3.0%, miR-21 FLuc inconclusive and Rango release inh 13%.
Screening Cn1cnnc1SCCC(=O)Nc1ccccc1 returned Rango complex inh 6.4%, miR-21 FLuc -4%, Rango release inh 0% and GLA inh pH 4.5 -1.
`O=C(CSc1nnc(Cc2cccs2)n1Cc1ccco1)Nc1cc(Cl)cc(Cl)c1` gave Rango complex inh -3.3%, miR-21 FLuc 14%, Rango release inh -8% and GLA inh pH 4.5 -9.
For C[C@H](NC(=O)c1ccccc1Cl)C(=O)OCC(=O)N1CC2(C)CC1CC(C)(C)C2 (stereo partly drawn) the results were Rango complex inh 1.3%, miR-21 FLuc -4%, Rango release inh -17% and GLA inh pH 4.5 15.
`C#CCNC(=O)C1=C[C@H](c2csc3ccccc23)C[C@H](OCc2ccc(CO)cc2)O1` gave Rango complex inh -0.3%, miR-21 FLuc 9%, Rango release inh -7% and GLA inh pH 4.5 -5.
Screening CC(C)NC(=O)CN(c1cccc([N+](=O)[O-])c1)S(=O)(=O)c1ccccc1 returned Rango complex inh -2.5%, miR-21 FLuc 2%, Rango release inh -3% and GLA inh pH 4.5 3.
`O=C(Nc1ccc(Cl)c(NC(=O)c2cccs2)c1)c1ccco1` gave Rango complex inh 1.2%, miR-21 FLuc -3% and Rango release inh -16%.
`COc1ccc(Cl)cc1-c1nc(SCC(=O)NC(C)(C)C)n[nH]1` gave Rango complex inh 0.0%, miR-21 FLuc 0%, Rango release inh 3% and GLA inh pH 4.5 7.
`O=C(C1CCN(c2ncnc3c2nc2n3CCCCC2)CC1)N1CCN(c2ccc(F)cc2)CC1` gave Rango complex inh 2.4%, miR-21 FLuc 0%&29% and Rango release inh -1%.
`COc1ccc(CCCN2CCC(CN3CCNC(=O)C3=O)CC2)cc1OC` gave Rango complex inh inconclusive and Rango release inh -13%.
Screening COc1cc(NC(=O)[C@@H]2CCCN(S(=O)(=O)c3cccc4cccnc34)C2)cc(OC)c1OC returned Rango complex inh -0.1% and Rango release inh 12%.
Screening Cn1nnc(NC(=O)CSc2ccc(Cl)cc2)n1 returned Rango complex inh 0.0%, miR-21 FLuc -5%, Rango release inh 1% and GLA inh pH 4.5 0.
For Cc1cccc(CCN(CC(=O)NC2CCCCC2)C(=O)c2csnn2)c1 the results were Rango complex inh -0.1%, miR-21 FLuc -3%, Rango release inh 10% and GLA inh pH 4.5 -15.
Screening Cc1nn2c(nc(N3CCOCC3)c3ccccc32)c1C=C(C#N)C#N returned Rango complex inh 3.7%, miR-21 FLuc -5%, Rango release inh -19% and GLA inh pH 4.5 -13.
Screening CCn1c2ccccc2c2cc(NC(=O)c3ccccc3[N+](=O)[O-])ccc21 returned Rango complex inh -0.4%, miR-21 FLuc -7%, Rango release inh 8% and GLA inh pH 4.5 -9.
CCOc1ccc(S(=O)(=O)N=C(c2ccccc2)N2CCOCC2)cc1 was read as Rango complex inh -0.4% and Rango release inh 19%.
CC(=O)Nc1ccc(NC(=O)C2CCN(C(=O)c3cccs3)CC2)cc1 was read as Rango complex inh -0.9%, miR-21 FLuc -2%, Rango release inh -14% and GLA inh pH 4.5 -4.
N/N=C(/Cc1nc2ccccc2[nH]1)c1ccc([N+](=O)[O-])cc1 was read as Rango complex inh -1.3%, miR-21 FLuc -45%, Rango release inh -3% and GLA inh pH 4.5 -11.
CCNC(=O)NC(=O)C(C)Sc1nnc(COc2ccccc2Cl)o1 (stereo not drawn) was read as Rango complex inh -1.3%, miR-21 FLuc -8%, Rango release inh 16% and GLA inh pH 4.5 1.
`CCOC(=O)c1cc(S(=O)(=O)N2CCOCC2)cn1C` gave Rango complex inh -1.6%, miR-21 FLuc 1% and Rango release inh -10%.
`O=c1c2cc(N3CCOCC3)ccc2[nH]c(=S)n1CCCN1CCCCC1` gave Rango complex inh 0.3%, miR-21 FLuc -11%, Rango release inh -2% and GLA inh pH 4.5 0.
Cc1cc(N)n(-c2ncnc3scc(-c4ccc(Cl)cc4)c23)n1 was read as Rango complex inh 2.3%, miR-21 FLuc -4%, Rango release inh 0% and GLA inh pH 4.5 0.
Cc1ccccc1Nc1ncnc2c1cnn2Cc1ccccc1 was read as Rango complex inh 0.8%, miR-21 FLuc 0%, Rango release inh -9% and GLA inh pH 4.5 0.
`COc1ccc(/C=C(/C#N)C(=O)Nc2ccccc2C)cc1C(=O)O` gave Rango complex inh 0.0%, miR-21 FLuc -2%, Rango release inh 2% and GLA inh pH 4.5 0.
`O=C1CC2c3ccccc3C1C1C(=O)N(CCc3ccccc3)C(=O)C21` (stereo not drawn) gave Rango complex inh 1.7%, miR-21 FLuc -1%, Rango release inh -4% and GLA inh pH 4.5 10.
`CC(=O)NC1C(=O)Nc2c1cccc2C(F)(F)F` (stereo not drawn) gave Rango complex inh -4.8%, miR-21 FLuc -2%, Rango release inh 18% and GLA inh pH 4.5 1.

Arranged by number of heavy atoms (highest first): some entries from above
`O=C1CC2c3ccccc3C1C1C(=O)N(CCc3ccccc3)C(=O)C21` (stereo not drawn) gave Rango complex inh 1.7%, miR-21 FLuc -1%, Rango release inh -4% and GLA inh pH 4.5 10.
CCNC(=O)NC(=O)C(C)Sc1nnc(COc2ccccc2Cl)o1 (stereo not drawn) was read as Rango complex inh -1.3%, miR-21 FLuc -8%, Rango release inh 16% and GLA inh pH 4.5 1.
Cc1ccccc1Nc1ncnc2c1cnn2Cc1ccccc1 was read as Rango complex inh 0.8%, miR-21 FLuc 0%, Rango release inh -9% and GLA inh pH 4.5 0.
`CCOC(=O)c1cc(S(=O)(=O)N2CCOCC2)cn1C` gave Rango complex inh -1.6%, miR-21 FLuc 1% and Rango release inh -10%.
`CC(=O)NC1C(=O)Nc2c1cccc2C(F)(F)F` (stereo not drawn) gave Rango complex inh -4.8%, miR-21 FLuc -2%, Rango release inh 18% and GLA inh pH 4.5 1.
